MT1-MMP act inh: blocks activation of human MT1-MMP | P50281 | HT1080 RFP-PRO-GFP cells, GFP/RFP ratio fluorescence, overnight; percent of plate control window, DMSO zero | GFP/RFP ratio change, % at 20 µM | hit rate 0.061% among 360,000;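 active = GFP/RFP ratio change of at least 30% with cell ATP level not reduced by more than half and red fluorescence within 50% of control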; also: strong numbers were not always called active
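Test system: HT1080 cells expressing an RFP-PRO-GFP fluorescent reporter construct / Compound dosing: single-point 20 µM compound, 1% DMSO / Schedule: cells overnight before dosing, compound overnight, 37 °C, 5% CO2 / Evaluation: GFP/RFP fluorescence ratio / Control set: DMSO and RFP-L50D-GFP cell wells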
UUG fidelity: alters start codon recognition fidelity in yeast. S. cerevisiae UUG-firefly luciferase reporter, luminescence/redox ratio. hit rate 0.13% among 350,000. activity score, % at 18.7 µM. AID 602363;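 active = replicate mean at a twofold rise or more, about +100% in these data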;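 also: firefly luciferase made from a UUG start codon reports start codon fidelity; reporter light over untreated wells divided by growth signal over untreated wells; some hits fall short of that in this replicate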
eIF4H FP inh: inhibitors of RNA binding by human eIF4H; Q15056; eIF4H fluorescence polarization binding assay; inhibition, % at 35 µM; hit rate 0.94% among 290,000; AID 2012;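 active = 50% or more with normal probe brightness, or confirmed in later tests; inconclusive = above 50% with abnormal brightness, or retests that disagree; inactive = below 50% or failed in later tests; about a fifth of its hits are not listed in these tables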;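 also: calls also rest on retests at 20 µM and on dose response follow-up; 0% = protein and probe with vehicle and 100% = probe without protein; strong numbers were not always called active; many hits fall short of the cut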
Env fusion inh: inhibitors of HIV Env-mediated cell fusion; inhibition, % at 12.3 µM; HeLa-JRFL Env/CEM21 cell fusion, luciferase; hit rate 1.1% among 360,000;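 active = mean replicate inhibition score of at least 50 and every replicate individually at or above 50; inconclusive = only one of the two criteria met; inactive = mean below 50 and not all replicates reaching 50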;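 also: 0% = plate neutral controls and 100% = maraviroc near 300 nM; one replicate is shown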
Rce1 inh: yeast Ras-converting enzyme inhibition; calls only; hit rate 0.27% among 290,000; yeast membranes, quenched prenylated peptide cleavage fluorescence;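 active = fall in fluorescence gain of 50% or more versus controls, with final raw signal at or below 3038400; inconclusive = same 50% fall but final raw signal above 3038400; inactive = fall in fluorescence gain under 50%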;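 also: plate controls were neutral control wells for no effect and wells lacking membranes for full effect; tested at 10 µM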
Target sequence (Q03530 whole entry, looked up): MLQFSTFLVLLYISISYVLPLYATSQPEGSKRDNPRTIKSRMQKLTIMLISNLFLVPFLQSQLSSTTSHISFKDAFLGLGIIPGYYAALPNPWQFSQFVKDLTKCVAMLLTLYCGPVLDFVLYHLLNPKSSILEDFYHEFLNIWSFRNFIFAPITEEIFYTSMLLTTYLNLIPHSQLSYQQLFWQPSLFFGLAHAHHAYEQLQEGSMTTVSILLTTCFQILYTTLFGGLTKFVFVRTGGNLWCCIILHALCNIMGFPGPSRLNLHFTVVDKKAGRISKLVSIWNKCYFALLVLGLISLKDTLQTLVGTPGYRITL
CSC inhib: blocks cancer stem cells | cancer stem cell-like cells viability, luminescence | inhibition, % at 7.5 µM | hit rate 1.1% among 300,000 | AID 2717;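 active = mean at 75% or more and at least half the replicates too; inconclusive = mean and replicates disagree; tested in HMLE shEcad cells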;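 also: 0% = median of negative and 100% = median of positive control wells; the first replicate is given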
PABP FP inh: PABP-poly(A) binding inhibition | P11940 | PABP-poly(A) RNA binding, fluorescence polarization | inhibition, % at 35 µM | hit rate 1% among 290,000 | AID 2014;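 active = 50% or more with normal probe brightness, or confirmed in later tests; inconclusive = above 50% with abnormal brightness, or retests that disagree; inactive = below 50% or failed in later tests; about a fifth of its hits are not listed in these tables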;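 also: calls also rest on retests at 20 µM and on dose response follow-up; controls were probe without protein and protein plus probe with vehicle; some compounds called inactive have numbers as strong as hits; many hits fall short of the cut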
MT1-MMP act inh RFP: further read-out of MT1-MMP act inh, marked with its call; RFP signal change, %; measured here: RFP expression control read;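 0 = vehicle wells; hits needed this value within 50% of zero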
The depositor's hits bear a star; i = inactive; ? = inconclusive; / = no result given; & = joins results of further samples. The list is partial; count on the stated rates, not on these rows.

SMILES	MT1-MMP act inh	MT1-MMP act inh RFP	UUG fidelity	eIF4H FP inh	Env fusion inh	Rce1 inh	CSC inhib	PABP FP inh
O=C(C(=C1N(Cc2ccc(Cl)nc2)CCN1Cc1ccc(Cl)nc1)[N+](=O)[O-])C(Cl)Cl	2	1	1	-3	-7	i	12	1
CCC/C=N/O	1	6	-1	/	/	/	-1	/
C[C@]12CCC3C(CCC4=C/C(=N/OCC(=O)NC(CCC(=O)O)C(=O)O)CC[C@@]43C)C1CCC2O (some centres not stated)	1	8	1	-8	-32	i	-4	8
O=[N+]([O-])c1ccccc1CNCCc1c[nH]c2ccccc12	1	2	-20	5	-57	i	4	22
CCc1nc2ccc(Br)cc2c(=O)n1-c1ccccc1C(F)(F)F	-2	-5	1	/	-49	i	-1	/
CN1CCCN(C(=O)COc2ccc(F)cc2F)CC1	-2	2	-10	-10	/	i	-19	1
COc1ccc(OC)c2c1CCC1NCCOC21 (configuration not stated)	/	/	/	30	/	i	4	13
Cn1c(O)c(/C=N/N2CCOCC2)c(=O)[nH]c1=S	/	/	/	8	/	i	13	1
COC(=O)N1C(c2ccccc2)C1c1ccccc1 (configuration not stated)	-1	2	/	-9	-3	i	-17	-4
CCCC/C(C)=C/[C@@H](NP(=O)(c1ccccc1)c1ccccc1)c1ccccc1	-10	-5	-16	-3	84*	i	114*	5
COc1cc(N2CCOCC2)ccc1/C=C1\C(=O)NC(=O)N(Cc2ccc3c(c2)OCO3)C1=O	-22	10	/	?	0	i	-13	5
O=C1NC(=O)C(=Cc2ccc(OCC(=O)N3CCOCC3)cc2)C(=O)N1	1	2	/	2	/	i	-10	-6

2 entries from above in a different format.
Under each structure – MT1-MMP act inh | MT1-MMP act inh RFP | UUG fidelity | eIF4H FP inh | Env fusion inh | Rce1 inh | CSC inhib | PABP FP inh
Cn1c(O)c(/C=N/N2CCOCC2)c(=O)[nH]c1=S
  / | / | / | 8 | / | i | 13 | 1
COC(=O)N1C(c2ccccc2)C1c1ccccc1 (configuration not stated)
  -1 | 2 | / | -9 | -3 | i | -17 | -4

New compounds follow
SMILES	MT1-MMP act inh	MT1-MMP act inh RFP	UUG fidelity	eIF4H FP inh	Env fusion inh	Rce1 inh	CSC inhib	PABP FP inh
Cc1ccc2c(c1)N(CCC(=O)N1CCC3(CC1)OCCO3)C(=O)C(C)O2 (configuration not stated)	1	-1	-3	0	-64	/	/	3
CN(C)C(=O)Oc1ccc(NC(=O)N2CCOCC2)cc1	0	3	-6	-5	-33	i	-13	-7
Oc1ccc(-[n+]2c(-c3ccccc3)cc(-c3ccccc3)cc2-c2ccccc2)cc1	11	-30	9	/	?	i	-15	/
Cc1nc2ccccc2c(=O)n1-c1ccc(Cl)cc1Cl	1	-2	6	2	20	i	-1	6
COC(=O)C1=C(c2cccc(C#N)c2)C[C@@H]2CC[C@H]1N2C(=O)NCCNC(C)=O	3	3	-9	/	-27	/	2	/
O=c1[nH]c(=O)n(-c2cccc3ccccc23)c(O)c1C=NCCCn1ccnc1	4	1	-6	-1	/	i	/	-8
CCC(=NCCO)c1c(O)n(C2CCCCC2)c(=O)[nH]c1=O	-4	-2	1	4	/	i	-8	6
NCCc1c(Cc2ccccc2)[nH]c2ccccc12	-5	5	-21	/	-6	/	-6	/
CCCN1CCc2cccc3c2[C@H]1Cc1ccc(O)c(O)c1-3	3	3	-23	/	/	i	20	/
CC(C)CCOC(=O)c1c(N)n(CC2CCCO2)c2nc3ccccc3nc12 (configuration not stated)	-9	-7	-13	5	/	i	-7	-4
COC(=O)C1=C(c2cccc(OC)c2OC)C[C@@H]2CC[C@H]1N2C(=O)N1CCC(O)CC1	3	5	-11	/	-6	i	-13	/
CCCc1[nH]nc2c1C1(C(=O)N(CC(N)=O)c3ccccc31)C(C(=O)OC)=C(N)O2 (configuration not stated)	-1	-2	3	0	/	i	-11	-14

Reprinted at random: three entries already listed, in no set order.
SMILES	MT1-MMP act inh	MT1-MMP act inh RFP	UUG fidelity	eIF4H FP inh	Env fusion inh	Rce1 inh	CSC inhib	PABP FP inh
CC(C)CCOC(=O)c1c(N)n(CC2CCCO2)c2nc3ccccc3nc12 (configuration not stated)	-9	-7	-13	5	/	i	-7	-4
COc1cc(N2CCOCC2)ccc1/C=C1\C(=O)NC(=O)N(Cc2ccc3c(c2)OCO3)C1=O	-22	10	/	?	0	i	-13	5
COC(=O)C1=C(c2cccc(C#N)c2)C[C@@H]2CC[C@H]1N2C(=O)NCCNC(C)=O	3	3	-9	/	-27	/	2	/

A section of the results above, for reference:
SMILES	MT1-MMP act inh	MT1-MMP act inh RFP	UUG fidelity	eIF4H FP inh	Env fusion inh	Rce1 inh	CSC inhib	PABP FP inh
CCC(=NCCO)c1c(O)n(C2CCCCC2)c(=O)[nH]c1=O	-4	-2	1	4	/	i	-8	6
NCCc1c(Cc2ccccc2)[nH]c2ccccc12	-5	5	-21	/	-6	/	-6	/
CCCN1CCc2cccc3c2[C@H]1Cc1ccc(O)c(O)c1-3	3	3	-23	/	/	i	20	/
CC(C)CCOC(=O)c1c(N)n(CC2CCCO2)c2nc3ccccc3nc12 (configuration not stated)	-9	-7	-13	5	/	i	-7	-4
COC(=O)C1=C(c2cccc(OC)c2OC)C[C@@H]2CC[C@H]1N2C(=O)N1CCC(O)CC1	3	5	-11	/	-6	i	-13	/
CCCc1[nH]nc2c1C1(C(=O)N(CC(N)=O)c3ccccc31)C(C(=O)OC)=C(N)O2 (configuration not stated)	-1	-2	3	0	/	i	-11	-14

More results
SMILES	MT1-MMP act inh	MT1-MMP act inh RFP	UUG fidelity	eIF4H FP inh	Env fusion inh	Rce1 inh	CSC inhib	PABP FP inh
COc1ccc(CCC(=O)N2CCC3(CC2)OCCO3)cc1	-5	2	-12	3	12	i	-13	9
COc1ccc(CCC(C)NCCc2ccccc2)cc1 (configuration not stated)	2	-5	38	-2	-2	i	1	8
CC(C)N1C(=O)NC(=O)C2(Cc3cc([N+](=O)[O-])ccc3N(C)C2c2ccccc2)C1=O (configuration not stated)	-2	-5	/	-1	-25	i	-9	17
CC/C(=N\Nc1ccccc1)c1c(O)n(-c2ccc(OC)cc2)c(=O)[nH]c1=O	7	6	/	-8	13	i	76*	-4
Cc1c(Oc2cc(NN3CCCCC3)c([N+](=O)[O-])cc2[N+](=O)[O-])cccc1[N+](=O)[O-]	5	4	-6	4	26	i	0	2
CCC(=NCc1ccc(F)cc1)c1c(O)n(C)c(=O)n(C)c1=O	3	-11	-2	2	80*	i	0	5
Cc1ccsc1C(=O)C1CCCN(Cc2cnn(C)c2)C1 (configuration not stated)	1	3	/	-7	-26	i	-13	-5
CC(C)(C)NC(=O)C1CC2CCCCC2CN1 (configuration not stated)	4	4	/	-5	2	i	-7	23
Cc1nc2ccccc2c(=O)n1-c1ccc(Br)cc1[N+](=O)[O-]	2	6	/	0	5	i	-2	2
COC(=O)C1=C(c2cc3ccccc3s2)C[C@@H]2CC[C@H]1N2C(=O)NCCCOC(C)C	-3	-4	3	/	4	i	1	/
O=S(=O)(c1cc(Cl)cc(Cl)c1)N1Cc2cc(N3CCOCC3)ccc2-n2nncc2C1	2	-2	18	/	0	/	/	/
O=C(/C=C/c1ccc2c(c1)OCO2)c1c(O)n(CCC2=CCCCC2)c(=O)[nH]c1=O	-23	-14	/	0	-1	/	84*	-3
CCOC(=O)[C@@H]1[C@H]2COc3ccc(Br)cc3[C@H]2N2C(=O)N(c3cccc(C)c3)C(=O)[C@]12C	0	-5	-13	/	-30	/	-6	/
CCCN1CCC[C@@H]2Cc3nc(N)ncc3C[C@H]21	/	/	/	/	8	i	-8	/
O=C(Nc1ccccc1)c1c(O)[nH]c(=S)[nH]c1=O	1	5	-2	/	-3	i	17	/
O=C(O)c1c[nH]c2ccc(S(=O)(=O)N(CCCl)CCCl)cc12	2	2	-20	5	-35	i	-7	0
CCC(=NCCO)c1c(O)n(-c2ccccc2)c(=O)[nH]c1=O	11	0	-11	-6	/	i	-9	-10
CCn1c(C)c(C(=O)Nc2ccc(OC)cc2)c2cc(OC)ccc21	1	-4	-1	2	-4	i	6	10
COc1ccc(C(=O)Oc2cccc3cccnc23)cc1S(=O)(=O)N1CCOCC1	0	3	1	0	3	i	-10	4
N#C/C(=C\c1ccc(O)cc1)C(=O)O	-2&3	-1&3	-16&-20	/	-77&-22	/	/	/
CCOC(=O)c1ccccc1C(=O)OCC	-10	5	-14	/	-4	i	-8	/
Cc1cc(OCC(=O)N[C@@H](Cc2ccccc2)C(=O)O)c2c3c(c(=O)oc2c1)CCCC3	0	2	3	10	/	i	-1	6
O=C1CN=C(c2cccs2)c2c(sc3c2CCCC3)N1	0	1	-8	-17	-72	i	47	4
COC(=O)C1=C(c2ccc(Cl)c(C(F)(F)F)c2)C[C@@H]2CC[C@H]1N2C(=O)NCCNC(C)=O	0	0	-6	/	-14	/	-7	/
Cc1[nH]c2ccc(OC(F)(F)F)cc2c1CCNCc1cccc([N+](=O)[O-])c1	-4	-5	-12	2	67*	i	33	6
Cc1ccc(-c2nc3ccccc3c(=O)n2-c2nccs2)cc1	10	0	-22	-15	-26	i	-5	2
COc1cccc(NP(=O)(Oc2ccc(Cl)cc2)Oc2ccc(Cl)cc2)c1	-17	-15	/	3	31	i	77*	2
CC[C@H]1CN2CCC1C[C@H]2[C@H](O)c1ccnc2ccc(OC)cc12 (some centres not stated)	1	-1	-1	/	-17	/	-7	/
Oc1ccc(C2=CCNCC2)cc1O	0	3	-9	/	13	i	-7	/
O=C1/C(=C\c2ccccc2)C2OCC=C3CN4CCC56c7ccccc7N1C5C2C3CC46 (configuration not stated)	-3	-2	5	5	-1	i	22	-5
O=[N+]([O-])c1ccc(N2CCCC2)c2ncccc12	10	2	/	?	-1	i	-4	-3
COc1c2c(cc3c1OCO3)CC[N+](C)=C2	3	4	-15	-8	/	i	2	1
CC(Cc1ccc(O)cc1)NCC(O)c1cc(O)cc(O)c1 (configuration not stated)	-1	3	-16	-5	74*	i	-11	-3
O=c1c2ccccc2nc(C[n+]2ccccc2)n1-c1cccc(C(F)(F)F)c1	1	5	0	-2	-55	i	-13	39
Cc1nn(Cc2ccccc2Cl)c(C)c1C(=O)OCC(=O)NC1CCS(=O)(=O)C1 (configuration not stated)	3	0	/	5	/	i	1	30
COc1ccc(-n2c(O)c(/C(C)=N/N3CCCCCC3)c(=O)[nH]c2=O)cc1	-1	-4	-12	7	2	i	4	10

Two compounds from above, showing only eIF4H FP inh and UUG fidelity.
| compound | eIF4H FP inh | UUG fidelity |
| --- | --- | --- |
| COc1cccc(NP(=O)(Oc2ccc(Cl)cc2)Oc2ccc(Cl)cc2)c1 | 3 | / |
| COc1ccc(-n2c(O)c(/C(C)=N/N3CCCCCC3)c(=O)[nH]c2=O)cc1 | 7 | -12 |

Screening data from PubChem BioAssay.
